Source: PubChem (National Center for Advancing Translational Sciences (NCATS))
CtBP-E1A blk: CtBP/E1A binding inhibition; AlphaScreen GST-E1A/His-CtBP binding, 1536-well; hits give low values; control for the full effect not named in the record; activity change, % (concentration not given with the values); 0.49% of 340,000 active; AID 651724; in the data active means activity change below about -65%; inconclusive means about -30% to -65%; inactive means above about -30%; also: % is scaled to controls: 0 for no effect and ±100 for the full control effect
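Steps: dispense buffer (Tris pH 8.0, NaCl 300 mM, TCEP 1 mM, BSA, Tween 20); add 5X protein mix (GST-E1A, His-CtBP, 125 nM each); pin 23 nL compound; 2 h at 37 °C, dark; add 5X beads (50 ug/mL); 1 h; read.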
ClpP mod: qHTS Assay for Activators of ClpP; ATP-dependent Clp protease proteolytic subunit (Bacillus subtilis (strain 168)), P80244; purified B. subtilis ClpP, FRET peptide cleavage, 20 min; Potency, µM (series often up to 57.5 µM), without a hit: at the highest dose activity change, negative = active; 1.9% of 340,000 active; active = well fitted falling curve with a large enough effect; inconclusive = small, poorly fitted or top-dose-only effect; inactive = no such curve, though single readings can be large or run the other way; also: potency is read from the fitted curve at half-maximal effect; the source files actives as falling curves though it sought activators and does not explain the sign; nearly all actives have a fitted effect of over 65% in size; many hits overshoot -100%
Target sequence (P80244 whole entry, looked up): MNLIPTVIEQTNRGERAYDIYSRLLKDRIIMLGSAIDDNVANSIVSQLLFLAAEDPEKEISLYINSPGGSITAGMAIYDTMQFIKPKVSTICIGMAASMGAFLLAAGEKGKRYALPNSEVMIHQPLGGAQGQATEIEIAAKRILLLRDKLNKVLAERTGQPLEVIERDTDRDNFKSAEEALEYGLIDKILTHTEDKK
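Purified B. subtilis ClpP, 10 microg/mL final in Tris/HCl pH8 with KCl, BSA, glycerol and Tween-20, cleaved an Abz/nitrotyrosine-quenched decapeptide. Fluorescence (ex 320, em 430) was read at 0 and 20 min at room temperature. Delta was normalized to 5.8 microM ADEP and DMSO/no-enzyme controls.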
* = called active by the depositor; ? = inconclusive. Not all compounds are listed (hit frequency here may not be typical).

SMILES | CtBP-E1A blk | ClpP mod
CC(=O)Nc1cccc(-c2ccnc3c2CC(C)(C(=O)Nc2ccc(Cl)cc2)O3)c1 (stereo unspecified) | -3.9 | -26.4%
CCOC(=O)[C@]12CCCC=C1N(Cc1ccc(Cl)cc1Cl)C(=O)[C@H](CC(=O)NCCCOC)C2 | 0.0 | 0.1%
CCCCCCCCN1C(=O)[C@H](CC(=O)NCCC(C)C)C[C@@]2(C(=O)OCC)CCC=C12 | -0.6 | 1.1%
CC1(c2nnnn2-c2ccc3c(c2)OCCO3)CCC(=O)N1CC1CCCCC1 (stereo unspecified) | 3.9 | -1.8%
CC(=O)C1=CCC(c2ccco2)N(S(=O)(=O)c2ccc(C)cc2)C1 (stereo unspecified) | -4.4 | 0.5%
COCOc1cccc(CN2CCC2(C)C(=O)NCCNC(C)=O)c1 (stereo unspecified) | 6.5 | 1.5%
CCc1nc2c(OCCn3cccc3)cccn2c1N(C=O)Cc1ccccc1 | -7.7 | -1.0%
CCOC(=O)[C@]12CCC=C1N(Cc1ccccc1)C(=O)[C@H](CC(=O)N1CCCC1)C2 | 0.0 | -2.2%
CCc1nc2ccc(C(=O)N3CCN(C)CC3)cn2c1N(C)CCCc1ccccc1 | 1.2 | -1.4%
Cc1cc(Br)ccc1NC(=O)CCCOc1cc(=O)n(C)c2ccccc12 | -14.2 | -3.1%

Next section.
SMILES | CtBP-E1A blk | ClpP mod
O=C(NC(c1ccc(-c2ccccc2)cc1)c1cnccn1)C1CCN(Cc2ccc3c(c2)OCO3)CC1 (stereo unspecified) | ? | 0.1%
O=C(Nc1ccccc1F)c1ccc2sc([C@@H]3O[C@H](CO)[C@H](O)[C@H](O)[C@H]3O)nc2c1 | 5.5 | 0.5%
COC(=O)c1sccc1-n1cc2c(c1-c1ccccc1)c(=O)n(C)c(=O)n2C | -11.0 | 0.6%
C[C@@H](c1ccccc1)N1C[C@H](COCc2ccccc2)Oc2cc(N3CCC[C@H]3CO)ccc2S1(=O)=O | -10.4 | -13.8%
CCCN(CCC)Cc1cc(=O)oc2cc(OC)ccc12 | 7.3 | 5.0%
COCCN1C(=O)CSCC1(C)C(=O)Nc1c(C)cccc1C (stereo unspecified) | 2.1 | -0.3%
COc1ccc2[nH]cc(CCNC(=O)/C=C/[C@H]3O[C@@H](n4cc(C)c(=O)[nH]c4=O)C[C@@H]3O)c2c1 | 0.2 | -0.5%
N#Cc1ccc(NC(=S)/N=C(\N)c2ccccc2)cc1 | -6.5 | 4.2%
CC(C)Oc1ccc(CN2CCC2(C)C(=O)NCc2ccc(C(F)(F)F)cc2)cc1 (stereo unspecified) | 0.9 | 3.4%
Cc1ccc2ccccc2c1C(O)c1ncc(-c2ccc(F)cc2)[nH]1 (stereo unspecified) | -18.8 | -1.5%

Remaining list, next part:
SMILES | CtBP-E1A blk | ClpP mod
CCc1nc2c(OCc3cc(Cl)cc(Cl)c3)cccn2c1N(C=O)Cc1ccccc1 | -12.1 | -3.8%
O=C(NCc1cccc(Cl)c1)c1cccc2c(-c3cccnc3)coc12 | -20.9 | -3.5%
c1cn2c(-c3ccc(N4CCOCC4)cc3)cncc2n1 | 1.7 | -9.2%
CC(=O)NC(c1ccc(F)c(F)c1)c1nc(-c2ccc(C)c(C)c2)cs1 (stereo unspecified) | -2.7 | 0.6%
CC(C)C[C@H]1CN([C@@H](CC(C)C)CN2CCCC2CN2C(=S)NC[C@@H]2Cc2ccccc2)C(=S)N1CCc1ccccc1 (stereo partly specified) | 1.1 | -0.7%
COC(=O)N1CCC2CC1c1c(Cl)cccc12 (stereo unspecified) | 8.2 | -7.3%
COC[C@H]1CCCN1[C@@H]1CS(=O)(=O)N[C@H]1COCc1ccccc1 | -6.6 | 1.2%
CCCCC[C@@H]1CCCCC[C@@H](O)C[C@@H](O)[C@H](O)/C=C/C(=O)O1 | -9.0 | 1.1%
O=C(C[C@@H]1C=C[C@H](NC(=O)Cc2ccccn2)[C@@H](CO)O1)NCCc1ccccc1 | 1.8 | -1.0%
Cc1ccc(CN2CCC(C)(Oc3ccc(Cl)cc3)C2)cc1 (stereo unspecified) | 5.0 | -2.7%

Additional records.
SMILES | CtBP-E1A blk | ClpP mod
COc1ccc(-c2csc(C(NC(C)=O)c3cccc(F)c3)n2)cn1 (stereo unspecified) | 1.9 | -1.8%
COc1cccc(Nc2nc(C(N)CO)cs2)n1 (stereo unspecified) | -75.7* | -5.7%
COCCCNc1ccn2nc(-c3cc(OC)c(OC)c(OC)c3)cc2n1 | -10.6 | 4.0%
O=c1[nH]c2ccccc2nc1-c1nnnn1Cc1ccccc1 | 1.7 | 3.9%
COc1cc(-c2cnc3c(NC=O)cc(-c4cccc(NC(C)=O)c4)cn23)cc(OC)c1OC | -21.8 | 38.7%
Cc1ccc(Cn2c(C)c(C(=O)NCc3ccc4c(c3)OCO4)sc2=O)cc1 | -4.5 | -0.3%
Cc1ccccc1CN1CC2=C(CCN(Cc3ccccc3)C2=O)N2CCN=C12 | 1.5 | -6.2%
O=C(Nc1ccc2c(c1)OCO2)c1cc(C2CCCN(C(=O)CCc3ccccc3)C2)on1 (stereo unspecified) | -11.3 | -2.0%
COCCNc1nc(Oc2cccc(F)c2)c2sccc2n1 | 4.2 | 5.1%
c1ccc(OCCNc2ccn3nc(-c4cccs4)cc3n2)cc1 | ? | 4.8%

Continued.
SMILES | CtBP-E1A blk | ClpP mod
C[C@@H]1COc2cc(N3CCSCC3)ccc2S(=O)(=O)N1 | 1.9 | -7.1%
Cc1ccc(-c2nc3ccccc3n2C(C(=O)NC(C)(C)C)C2CC2)cc1 (stereo unspecified) | -2.2 | -23.3%
CC1(C(=O)NCC2CCCCC2)CCN1C(=O)Cc1ccc(-c2ccccc2)cc1 (stereo unspecified) | 1.8 | -0.2%
CCOC(=O)N(C)c1c(CC)nc2c(OCc3ccccc3)cccn12 | 1.2 | -0.7%
CCNC(=O)C1CCCN(C(=O)c2ccc(C(=O)OC)cc2)CC1 (stereo unspecified) | 3.3 | -1.0%
CCOC(=O)[C@]12CCC=C1N(Cc1cccc3ccccc13)C(=O)[C@H](CC(=O)NCCCCc1ccccc1)C2 | -10.5 | -5.1%
O=C(O)CC1CC(O)CCC1=O (stereo unspecified) | -24.6 | -4.0%
CCc1nc2ccc(C(=O)N3CCN(S(=O)(=O)CC)CC3)cn2c1N(CCC(C)C)CCN(C)C | -24.8 | -5.3%
COc1ccc(N2CCN(C3C(=O)Nc4ccccc4-n4nnnc43)CC2)cc1 (stereo unspecified) | 2.3 | -7.9%
O=C(OC1CC2CC1[C@H]1CCCCN1C2=O)N1CCN(C(=O)c2ccccc2)CC1 (stereo partly specified) | 4.4 | -0.3%

(further entries)
SMILES | CtBP-E1A blk | ClpP mod
COC(=O)[C@@]12C[C@@H](CC(=O)N3CCCCC3)C(=O)N(Cc3ccccc3)C1=CCC(C)(C)C2 | 1.2 | 2.6%
COc1ccc(CCNC(=O)Nc2nc(CN)cs2)cc1OC | ? | -0.5%
CCNC(=O)C1(C)CCN(C(=O)c2ccccc2OC)C1 (stereo unspecified) | 4.2 | 1.5%
O=C(NCc1cccnc1)c1cc(C2CCCCN2C(=O)CCc2ccccc2)on1 (stereo unspecified) | 5.6 | -0.8%
COc1ccc(C(NC(=O)C2CCN(CCOc3ccc(Cl)cc3)CC2)c2cccs2)cc1 (stereo unspecified) | -11.8 | -1.7%
Cc1ccc(F)c(S(=O)(=O)NC(=O)C2(C)CCN2C(=O)C2(c3ccc(Cl)cc3)CC2)c1 (stereo unspecified) | 0.0 | 0.5%
O=C(NCc1cccnc1)c1cc(C2CCCN(S(=O)(=O)c3ccccc3)C2)on1 (stereo unspecified) | 6.2 | 1.2%
CC(O)(c1ccccc1)c1nc(-c2cccc(C(=O)O)c2)cs1 (stereo unspecified) | -19.3 | -1.5%
CC(C)C[C@@H](CN1CCCC1CN1C(=S)NC[C@@H]1Cc1ccccc1)N1C[C@H](Cc2ccccc2)N(CCc2ccccc2)C1=S (stereo partly specified) | -5.5 | -4.8%
CC(C)(C)c1ccc(C(=O)N2CCC2(C)C(=O)Nc2cccc3ncccc23)cc1 (stereo unspecified) | 0.2 | -23.5%

The list continues.
SMILES | CtBP-E1A blk | ClpP mod
Nc1[nH]c(C(=O)c2ccccc2)c(-c2ccc(Br)cc2)c1C(=O)NCCc1c[nH]c2ccccc12 | -9.5 | -4.2%
COc1ccc(NC(=O)c2cc(-c3ccc(F)cc3OC)n[nH]2)c(OC)c1 | 4.5 | -20.0%
COc1ccc(NC(=O)c2sc(=O)n(Cc3ccc(F)c(Cl)c3)c2C)cc1OC | -28.8 | 1.8%
CC1(C)OC(=O)C2=C(C[C@@H](CCc3ccccc3)O[C@H]2C2CCCC2)O1 | -6.2 | -0.3%
COCCNC(=O)C1(C)CCCN(CCS(=O)(=O)c2ccc(C)cc2)C1 (stereo unspecified) | 3.6 | 0.6%
CN(C(=O)C1Cc2c(-c3ccccc3Oc3ccccc3)ccnc2O1)c1ccccc1 (stereo unspecified) | -8.7 | -7.2%
O=C(NCc1ccc(F)cc1)Nc1nnc([C@@H]2C[C@H](O)[C@@H](CO)O2)s1 | -3.2 | -4.3%
CCOC(=O)[C@]12CCCC=C1N(Cc1ccc3c(c1)OCO3)C(=O)[C@H](CC(=O)NCc1cccs1)C2 | -17.2 | -3.1%
Cc1cccnc1CNC(=O)C1(C)CCCN1CC(C)C (stereo unspecified) | 1.0 | -2.5%
CC(C)Oc1cc(F)ccc1-c1cc(C(=O)Nc2ccccc2)[nH]n1 | 2.5 | -2.2%

(more compounds)
SMILES | CtBP-E1A blk | ClpP mod
COC(=O)c1ccc2nc(-c3ccco3)c(Cc3ccccc3)n2c1 | -20.1 | 4.6%
CN1OC[C@@H]2CN(C(=O)C(C)(C)C)[C@H](c3ccc(-c4cccnc4)cc3)C[C@@H]21 | -21.2 | -3.4%
COC(=O)[C@@]12C[C@@H](CC(=O)NCC34CC5CC(CC(C5)C3)C4)C(=O)N(Cc3ccco3)C1=CCC(C)(C)C2 | -3.2 | 2.6%
O=C(Nc1ccccc1)C1Cc2c(-c3cccc(F)c3)ccnc2O1 (stereo unspecified) | 0.3 | -0.2%
O=c1cccc(-c2cccc3ccccc23)o1 | -8.8 | -3.7%
CC(=O)Nc1c(C#N)c(-c2ccccc2)c(C#N)c(=O)n1-c1ccc(C)cc1 | 4.3 | -5.9%
CC(C)NC(=O)c1cc(C2CCCCN2C(=O)c2ccc(C(C)C)cc2)on1 (stereo unspecified) | -12.4 | -5.2%
Cc1cc(Cl)ccc1-c1nc(NC(C)C)nc2ccsc12 | 35.7 | 3.9%
CC(=O)Nc1cccc(-c2ccnc3c2CC(C)(C(=O)Nc2cccc(C(C)=O)c2)O3)c1 (stereo unspecified) | -8.5 | -4.9%
CC1(C(=O)NCc2ccc3c(c2)OCO3)CCN1Cc1csc2ccccc12 (stereo unspecified) | -13.7 | -0.1%

(continued)
SMILES | CtBP-E1A blk | ClpP mod
COc1ccc(OCCNC(=O)C2(C)CCN2Cc2ccc3ccccc3c2)cc1 (stereo unspecified) | -13.3 | -0.8%
CC(C)C[C@H]1CNC(=S)N1C[C@H]1CCCN1C[C@H](CC(C)C)N1C[C@H](Cc2ccc(O)cc2)N(CC2CCCCCC2)C1=S | -7.5 | -1.7%
CN(c1cccc(F)c1)c1cc2c(c3c1ccn3C)C1CCC2C1 (stereo unspecified) | -25.8 | 8.91µM*
COc1ccc(Cn2cc(Cn3c4ccccc4c(=O)n3C(C)C)nn2)cc1 | 0.7 | 5.5%
Cc1nc2ccccc2n1C(c1cccnc1)c1nc2ccccc2[nH]1 (stereo unspecified) | -3.9 | -10.7%
Cc1cccc(C)c1NC(=O)C(c1ccncc1)N1CCN(CCN(C)C)CC1 (stereo unspecified) | 4.7 | -4.3%
CN(Cc1ccccc1)c1cc2c(c3c1ccn3C)C1CCC2C1 (stereo unspecified) | ? | -6.3%
COCCNC(=O)C1(C)CCCN(C(=O)c2ccc(OC)c(OC)c2)C1 (stereo unspecified) | 5.9 | 0.6%
CCc1nc2ccc(C(=O)NCc3cccs3)cn2c1N(C)Cc1nccs1 | -5.1 | -0.6%
COc1cc(CN2C[C@@H](CO)O[C@@H](n3cnc4c(NC5CC5)ncnc43)C2)cc(OC)c1OC | 4.0 | -0.7%

The list continues:
SMILES | CtBP-E1A blk | ClpP mod
CC1(C(=O)Nc2ccc(Cl)c(Cl)c2)CCN1Cc1ccccc1OC(F)F (stereo unspecified) | -15.3 | -6.1%
CN(C)CCN1CCN(C2CN(Cc3cn(Cc4ccccc4)nn3)S(=O)(=O)C2)CC1 (stereo unspecified) | 5.7 | -4.6%
CCOc1ccc(CCN2C(=O)C(=O)N([C@@H](Cc3ccccc3)CN3CCC[C@H]3CN3C(=O)C(=O)NC[C@@H]3CC(C)C)C[C@@H]2Cc2ccc(O)cc2)cc1 | -15.4 | 2.6%
COc1ccc(NC(=O)C2(C)CCN2C2Cc3ccccc3C2)cc1OC (stereo unspecified) | -5.3 | -0.2%
COc1ccc(C(C)(O)c2nc(-c3ccncc3)cs2)cc1 (stereo unspecified) | 1.4 | 2.0%
CCc1nc2ccc(C(=O)Nc3cccc(NS(C)(=O)=O)c3)cn2c1N(C)C(=O)Cc1ccccc1 | -17.8 | -5.8%
